Screening results: PubChem BioAssay, National Center for Advancing Translational Sciences (NCATS)
Six1-Eya2 blk = inhibitors of human Six1/Eya2 interaction. AID 651725. 360,000 tested, 0.56% active. activity change, % (concentration not given with the values). Q15475+O00167. AlphaScreen GST-Six1/His-Eya2 binding, biochemical; active compounds read low; control for the full effect not named in the record; in the data active = activity change below about -65%; inconclusive = about -30% to -65%; inactive = above about -30%; further: on the % scale 0 is the no-effect control and ±100 the full control effect
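Homogeneous AlphaScreen proximity assay pairing GST-Six1 with His-tagged Eya2 (added as 5X mix: 250 nM and 500 nM) in 50 mM Tris pH 8.0, 300 mM NaCl, 1 mM TCEP. Glutathione donor and nickel acceptor beads; 1 h, 37 °C, dark.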
TRPML1 ag = activates the human TRPML1 channel; 410,000 tested, 0.12% active; activation, % (test concentration not listed); Q9GZU1; TRPML1-expressing cells, Ca2+ dye fluorescence, FDSS; host cell line not named in the record; reference of the full effect not given here; in the data active = activation above about 50%; inconclusive = about 30% to 50%; inactive = below about 30%; further: 0% is about no effect; the text of the record puts the active cut at 80%
Target sequence (Q9GZU1 whole entry, looked up): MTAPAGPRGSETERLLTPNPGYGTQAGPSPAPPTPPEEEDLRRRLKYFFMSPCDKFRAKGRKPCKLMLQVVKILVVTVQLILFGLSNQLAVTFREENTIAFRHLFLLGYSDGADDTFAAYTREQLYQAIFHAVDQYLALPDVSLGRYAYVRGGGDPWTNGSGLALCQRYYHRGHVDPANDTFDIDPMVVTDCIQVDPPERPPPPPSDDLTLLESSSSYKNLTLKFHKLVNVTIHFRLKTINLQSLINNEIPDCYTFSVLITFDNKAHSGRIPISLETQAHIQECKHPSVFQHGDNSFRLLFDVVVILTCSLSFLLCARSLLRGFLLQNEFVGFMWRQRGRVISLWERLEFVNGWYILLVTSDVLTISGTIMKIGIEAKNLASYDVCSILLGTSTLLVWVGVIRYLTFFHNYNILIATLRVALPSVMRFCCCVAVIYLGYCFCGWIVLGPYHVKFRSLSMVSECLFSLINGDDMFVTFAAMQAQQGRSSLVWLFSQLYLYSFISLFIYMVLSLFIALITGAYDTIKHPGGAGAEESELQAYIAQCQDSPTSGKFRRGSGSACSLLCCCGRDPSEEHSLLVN
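In this qHTS format, compounds were pin-transferred onto Ca8-dye-loaded TRPML1-DL cells induced with Tet overnight, and intracellular Ca2+ fluorescence was recorded kinetically for 110 s after a 10 s baseline. A subsequent 4uM final 54-4 (EC80) addition followed by a second 110 s read served as the antagonist phase.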
PINK1 expr mod = PINK1 expression modulation. AID 624263. Potency, µM (top dose mostly 76.6 µM), for the others: top-dose activation (PINK1 increase), usual class: activators. 410,000 tested, 0.2% active. PINK1 immunofluorescence, high-content cytometry, 24 h; active = well fitted activation curve with a large enough effect; inconclusive = small, poorly fitted or top-dose-only effect; inactive = flat fitted curve, though single readings scatter; cell line not stated here;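 further: potency means the concentration at half of the fitted maximal effect; % of control where 0% means no effect; nearly all actives have a fitted effect of over 65% in size; a mitochondrial uncoupler was the plate control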
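Decision-based qHTS: stable cells, 24 h exposure to five compound concentrations, CCCP as control. Fixed cells stained for PINK1 plus nuclear, mitochondrial and cell markers, cytometer read.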
TRPML1 inh = blocks the human TRPML1 channel. 390,000 tested, 0.02% active. AID 624415. activity change, negative = inhibition, % (test concentration not listed). Q9GZU1. TRPML1-inducible cells, Ca2+ dye fluorescence, FDSS; active compounds read low; inhibition of EC80 agonist-evoked calcium signal; in the data active means activity change below about -50%; inconclusive means about -30% to -50%; inactive means above about -30%;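 further: stimulus is agonist 54-4 at its EC80 concentration; on the % scale 0 is the no-effect control and ±100 the full control effect; compound concentration not given in the record; the text of the record puts the active cut at -80%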
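TRPML1-DL cells, Tet-induced overnight (~16 h, 37 °C) at 1,500 cells/well, were loaded with Ca8 no-wash dye plus quencher for 45-90 min at room temperature. Compounds were pinned during FDSS kinetic reading; agonist 54-4 at EC80 (4 uM final) then added.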
D2 PAM = potentiates the human D2 dopamine receptor allosterically. DiscoveRx D2 beta-arrestin cells, luminescence, 90 min; 100% = 57 uM dopamine signal. P14416. 360,000 tested, 0.23% active. potentiation, % (concentration not given with the values); active = potentiation of 50% or more; inconclusive = 30% to 50%; inactive = 30% or less;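 further: compound concentration not given in the record; tested on top of an EC20 dose of dopamine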
Target sequence (P14416 whole entry, looked up): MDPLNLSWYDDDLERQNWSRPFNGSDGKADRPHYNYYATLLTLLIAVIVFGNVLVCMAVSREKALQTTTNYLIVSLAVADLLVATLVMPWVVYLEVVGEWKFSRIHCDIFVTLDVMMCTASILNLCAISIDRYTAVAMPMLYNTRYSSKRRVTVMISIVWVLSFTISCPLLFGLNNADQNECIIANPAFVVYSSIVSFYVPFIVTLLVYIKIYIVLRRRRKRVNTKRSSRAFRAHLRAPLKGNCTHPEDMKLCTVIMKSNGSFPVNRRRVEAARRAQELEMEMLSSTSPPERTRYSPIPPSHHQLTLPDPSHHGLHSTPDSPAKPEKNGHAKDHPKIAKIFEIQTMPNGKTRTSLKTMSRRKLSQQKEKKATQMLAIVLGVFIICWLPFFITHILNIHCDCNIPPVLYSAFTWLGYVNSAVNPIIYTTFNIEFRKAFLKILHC
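PathHunter beta-arrestin assay in DiscoveRx D2 cells. Compounds were added with an EC20 of dopamine (50 nM final) for 90 min at 37 deg C. Luminescence was read 1 h after detection reagent, with 57 uM dopamine as the EC100 control.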
D2 agonist = human D2 receptor agonism in beta-arrestin assay; P14416; DiscoveRx PathHunter D2 beta-arrestin, luminescence, 90 min; 100% = 57 uM dopamine signal; activation, % (test concentration not listed); 360,000 tested, 0.084% active; in the data active = activation above about 40%; inconclusive = about 15% to 40%; inactive = below about 15%; further: compound concentration not given in the record; the text of the record calls up to 30% inactive
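DiscoveRx PathHunter D2 beta-arrestin cells (2,100/well) attached overnight, then compound-stimulated 90 min at 37 C in HBSS/10 mM HEPES/0.1% Tween-20 buffer; beta-galactosidase complementation read by luminescence after 1 h at ambient temperature. Dopamine 57 uM final (EC100) as control.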
The depositor's hits bear a star; ? = inconclusive; · = no result given; & = joins results of further samples; [ ] = dose if it differs, or a comment.

SMILES	Six1-Eya2 blk	TRPML1 ag	PINK1 expr mod	TRPML1 inh	D2 PAM	D2 agonist
COc1cccc(S(=O)(=O)Nc2ccc3c(c2)[C@@H]2C[C@H](CC(=O)NCCc4ccccc4)O[C@H](CO)[C@@H]2O3)c1	29.6	1.0	7.6%	-4.3	4.9	-9.3
CCCN(CCC)CCCNC(=O)c1cn(CC)c2ccc(S(=O)(=O)N3CCc4ccccc4C3)cc2c1=O	-4.0	0.5&-0.9	-1.4%&-0.1%	-4.1&-0.8	-6.5	-1.8
O=C(Nc1ccc2c(c1)OCCO2)C1CCN(S(=O)(=O)c2ccc3c(c2)OCCO3)CC1	-2.7	0.6	-4.6%	0.4	2.1	0.6
CCOc1ccc(NC(=O)/C(C=Nc2ccccc2)=C(\C)O)cc1	-11.7	-0.8	3.6%	-7.9	-3.5	-5.0
COc1ccc(CNC(=O)c2ccc(N3CCCC3)c(NC(=O)NCc3ccc(F)cc3)c2)cc1	·	-0.1	0.6%	17.9	·	·
CCN1CCN(C(=O)c2cc(S(=O)(=O)Nc3ccc(S(C)(=O)=O)cc3)ccc2Cl)CC1	35.7	-0.5	3.4%	-3.4	-14.3	-1.0
COc1ccccc1NC(=O)C1=C(C)Nc2nc(SC)nn2C1c1ccccc1Cl (stereo unspecified)	·	-1.4	1.2%	34.9	·	·
CCCCC1(C(=O)OCC)NC(c2ccc(O)cc2)C2C(=O)N(c3ccccc3)C(=O)C21 (stereo unspecified)	-3.3	1.5	-0.6%	5.6	-0.4	-4.1
CCc1cccc(C)c1NC(=S)N1CCCC1C(=O)O (stereo unspecified)	4.3	0.8	1.2%	-1.9	-3.7	-0.6
COc1ccc(-c2cc3c(=O)n(CC(=O)Nc4ccccc4C(F)(F)F)ccn3n2)cc1OC	·	1.5	6.8%	1.1	·	·
Cc1cccc(N2CCN(C(=O)CCSCc3ccccc3F)CC2)c1C	·	1.2	1.5%	-0.3	·	·
O=c1cc(CSc2n[nH]c(-c3ccncc3)n2)nc2sccn12	-8.3	-0.1	2.0%	13.2	5.5	-0.9
COc1cc(O)c(/C=N/NC(=O)c2ccncc2)c(OC)c1[N+](=O)[O-]	?	0.4	3.8%	23.7	-16.5	-1.6
CC(C)CC(=O)N1CCN(C(=O)CCC2CCCC2)CC1	9.1	-0.5	-2.5%	18.9	3.1	-0.6
C/C(=N\NC(=O)CCn1nc(C)cc1C)C(C)(C)C	0.2	-0.5	0.5%	50.4	0.9	-9.1
C/C=C\C=C/C(=O)Nc1cccc(C2=NOC3(C2)C[C@@H](C(N)=O)N(C(=O)C2(C)CC2)C3)c1 (stereo partly specified)	-3.2	-0.2	0.7%	-12.7	-5.2	-1.1
CC1(C)c2ccccc2N2CCC(=O)NC21/C=C/c1ccco1 (stereo unspecified)	-10.9	-0.5	0.1%	1.0	-30.1	-1.2
COC(=O)C1=CO[C@@H](O)C2C(CO)=CCC12 (stereo partly specified)	-0.8	-0.3	-1.7%	-10.1	-17.7	-3.2
Cc1ccc(S(=O)(=O)N(CC(=O)NCCC2=CCCCC2)Cc2ccccc2F)cc1	3.2	0.7	?	47.5	-5.8	0.3
NC(=O)c1ccsc1NC(=O)COC(=O)c1ccccc1F	-17.7	1.2	0.7%	13.1	1.4	0.5
CCOC(=O)C1CCCN(C(=O)CNC(=O)Cn2ccc3ccccc3c2=O)C1 (stereo unspecified)	-2.4	1.7	-1.4%	19.5	2.7	-0.1
CCOC(=O)N1CCC(NC(=O)C2CCN(Cc3nc(-c4ccc(CC)cc4)oc3C)CC2)CC1	3.9	-0.5	1.5%	0.8	-1.1	1.8
Cc1cc(C)c(NC(=O)C2CC(=O)N(Cc3ccccc3)C2)c(C)c1 (stereo unspecified)	4.4	0.3	0.9%	-9.6	-31.7	-0.1
CN(C)c1ccc(/C=N/N=C2/SC(CC(=O)O)C(=O)N2c2ccc(O)cc2)cc1 (stereo unspecified)	3.3	0.0	2.5%	0.7	-13.2	-6.5
O=C(C/C=N\OCc1c(Cl)cccc1Cl)Oc1ccc(Cl)cc1Cl	-5.2	-1.1	15.0%	-4.8	-10.3	-4.4
Cc1ccccc1NC(=O)c1ccc(C)c(S(=O)(=O)Nc2cccnc2)c1	3.5	-0.5	4.2%	-5.0	-19.4	6.6
O=C(COC(=O)CNC(=O)c1ccc(Cl)c([N+](=O)[O-])c1)NC(=O)c1ccccc1	0.2	0.0	0.5%	22.6	0.0	5.7
Cc1[nH]nc2c1C(c1cccc(OC(=O)N3CCOCC3)c1)C(C#N)=C(N)O2 (stereo unspecified)	-1.6	-1.0	0.1%	1.2	?	-1.6
CCC(CC)N1CCN(S(=O)(=O)c2ccc(OC)cc2)CC1	7.8	-0.4	0.9%	8.1	-7.1	2.6
O=C(NCc1cccs1)c1cc(-c2ccccc2)on1	2.9	-0.1	2.3%[38.3 µM]	6.2	-9.9	-2.8

Random excerpt: two entries already listed.
SMILES	Six1-Eya2 blk	TRPML1 ag	PINK1 expr mod	TRPML1 inh	D2 PAM	D2 agonist
Cc1[nH]nc2c1C(c1cccc(OC(=O)N3CCOCC3)c1)C(C#N)=C(N)O2 (stereo unspecified)	-1.6	-1.0	0.1%	1.2	?	-1.6
O=C(COC(=O)CNC(=O)c1ccc(Cl)c([N+](=O)[O-])c1)NC(=O)c1ccccc1	0.2	0.0	0.5%	22.6	0.0	5.7

Going on with the list:
SMILES	Six1-Eya2 blk	TRPML1 ag	PINK1 expr mod	TRPML1 inh	D2 PAM	D2 agonist
O=C(O)c1ccc(S(=O)(=O)NC2CC2)cc1	5.2	0.0	0.0%	-3.0	-9.6	-4.2
CCOC(=O)c1c(-c2ccc(F)cc2)csc1NC(=O)CCN1CCOCC1	-8.5	-0.2	8.3%	10.0	-13.9	-3.8
CCn1nc(C)c(CNC(=O)c2cc(COc3ccc(C)nc3)on2)c1C	2.9	1.9	-0.2%	1.6	-0.6	9.2
Cc1ccc(COc2ccsc2C(=O)NN)cc1	4.8	-0.3	0.3%	17.6	-10.3	-15.8
O=C(Nc1nnc([C@@H]2O[C@H](CO)[C@@H](O)[C@H]2O)s1)Nc1cccc2c1CCCC2	3.6	-0.5	0.8%	·	0.1	4.9
CCN1C(=O)c2ccccc2S(=O)c2ccc(C(=O)N3CCN(c4cc(Cl)ccc4C)CC3)cc21 (stereo unspecified)	·	-1.2	1.9%	-1.0	·	·
COc1cccc(CNC(=O)C2(C)CCCN2C(=O)C(C)C)c1 (stereo unspecified)	8.5	0.2	1.7%	·	-1.4	-1.3
O=C(CN1C(=O)NC(c2ccccc2)(c2ccccc2)C1=O)NCC(=O)Nc1ccc(F)cc1	-5.7	-0.4	-1.3%	-6.7	4.1	-2.4
COC(=O)c1ccc(OCC(O)CN2CCN(C(=O)c3ccco3)CC2)c(OC)c1 (stereo unspecified)	-2.8	-0.1	2.2%	2.6	14.0	13.4
COc1ccc(OCC(O)Cn2cnc(-c3ccc(Br)cc3)c2)cc1 (stereo unspecified)	-5.2	-1.0	-3.3%	6.1	-12.4	-3.4
CCOC(=O)c1oc2ccccc2c1CSc1nnnn1-c1ccc(C)cc1	4.4	3.3	-8.5%[38.3 µM]	42.0	-0.3	-1.0
CCCCn1cnc2c([nH]c3cc(OC)ccc32)c1=O	-8.4	-0.6	-0.6%	7.4	-12.5	0.8
COc1ccc2c(c1)O[C@@]1(CCCC[C@@H]1C)CC2=O	-3.0	0.8	1.6%	-25.5	-7.0	-0.9
c1cncc(CSc2ccc(-c3ccc4c(c3)OCO4)nn2)c1	-4.4	0.0	2.9%	3.4	-1.3	1.6
CCCn1c(SCc2ccccn2)nc2c1c(=O)n(C)c(=O)n2C	4.0	0.1	1.4%[38.3 µM]	15.5	0.0	1.5
O=P(C(=S)Nc1ccccc1Cl)(c1ccccc1)c1ccccc1	-3.3	-1.1	0.4%	1.3	-7.7	-2.9
Cc1cccc(C)c1NC(=O)Cn1c(=O)n(CCCS(=O)(=O)C2CCCCC2)c(=O)c2ccccc21	·	-0.1	-0.2%	11.6	·	·
CCC(=O)Nc1cccc(NC(=O)c2ccc3c(c2)OCO3)c1	-6.5	-0.7	8.9%	-3.9	-4.7	-3.0
COc1ccccc1-c1cc(NC=O)c2ncc(-c3cccc(C(=O)N(C)C)c3)n2c1	-26.3	-0.8	2.6%	·	-1.9	-0.7
CN1C(=O)CC(N2CCN(C(=O)CN3CCCC3)CC2)C1=O (stereo unspecified)	5.4	0.4	-0.2%	11.2	5.7	5.6
C=Cc1ccc(Cn2ccn(-c3ccc(F)c(F)c3)c(=O)c2=O)cc1	·	-0.1	2.5%	-9.0	·	·
COc1ccc(CN(C)[C@H]2C[C@H]3c4[nH]c5ccccc5c4CCN3C[C@H]2[C@H](C)O)cc1	-27.0	-0.4	2.6%	0.3	-8.5	-7.4
Cc1ccc(C(=O)N2CC(C)OC(C)C2)c(Cl)c1 (stereo unspecified)	9.1	-0.2	0.4%	-9.2	-14.0	7.0
C=CCOc1ccc(C(=O)Nc2ccccc2C(=O)NCc2cccnc2)cc1	-3.8	-0.2	11.7%	0.4	-11.5	-0.5
CCCCC(=O)Nc1ccc(C(=O)Nc2nc(CC(=O)OCC)cs2)cc1	-2.6	0.2	4.3%[38.3 µM]	14.3	-2.2	0.4
Clc1ccc(Sc2ccc(/C=N/n3cnnc3)o2)cc1	18.5	0.6	0.7%	-0.7	-8.0	1.0
Cn1c(C(=O)OCC(=O)NCc2cccs2)cc2sccc21	4.5	-0.5	·	-5.2	-16.3	-3.3
CCNC(=O)c1ccc2c(c1)C1C3CCC(C3)C1C(c1ccccc1)N2 (stereo unspecified)	1.1	0.2	8.8%	28.7	-14.5	-3.5
O=C1NC(=S)NC1=Cc1ccc(Cl)cc1Cl	1.7	3.7	-4.0%	-5.7	-19.0	-5.8
COc1ccc(-n2ccnc2SCC(=O)NCc2ccc(F)cc2)c(OC)c1	-21.1	-0.3	-1.5%	-3.0	-7.5	-8.8
CN1CCc2nc(NC(=O)c3cccc(OC(F)F)c3)sc2C1	5.9	0.8	-1.2%	18.8	-9.8	-3.7
CCN(CC(=O)Nc1ccc(NC(C)=O)cc1)C(=O)CC1OC(=O)c2ccccc21 (stereo unspecified)	4.7	0.0	5.6%	12.6	14.0	7.7
CCn1cc(-c2nnnn2-c2ccc(Cl)cc2)c(=O)c2ccccc21	9.9	0.3	-2.9%	26.8	4.8	1.4
CNc1cc(N2CCCCCC2)ccc1[N+](=O)[O-]	-23.6	-0.3	·	2.9	7.8	1.7
Cc1cc(C)c2c(CN3CCC(C)CC3)cc(=O)oc2c1	6.7	1.3	5.1%	-10.7	-13.1	-3.0
COc1cccc(-c2cc3nc4c(c(NCC(C)(C)CN(C)C)n3n2)CCCC4)c1	-15.7	-0.4	?	27.1	-17.3	-2.7
CCn1cc(CNC(=O)CC2C(=O)NCCN2CC(c2ccccc2)c2ccccc2)cn1 (stereo unspecified)	5.1	0.3	-1.6%	-17.0	-14.5	1.5
COc1ccc(NC(=O)c2cc(-c3ccc(OC)c(OC)c3)on2)cc1OC	-2.6	0.1	-5.3%[38.3 µM]	18.6	-4.0	-1.2
